Source: PubChem
TRPML1 ag – activates the human TRPML1 channel | AID 624414 | Q9GZU1 | activation, % (test concentration not listed) | 0.12% of 410,000 active | TRPML1-expressing cells, Ca2+ dye fluorescence, FDSS; host cell line not named in the record; reference of the full effect not given here; in the data active = activation above about 50%; inconclusive = about 30% to 50%; inactive = below about 30%; further: 0% is about no effect; the text of the record puts the active cut at 80%
Target sequence (Q9GZU1 whole entry, looked up): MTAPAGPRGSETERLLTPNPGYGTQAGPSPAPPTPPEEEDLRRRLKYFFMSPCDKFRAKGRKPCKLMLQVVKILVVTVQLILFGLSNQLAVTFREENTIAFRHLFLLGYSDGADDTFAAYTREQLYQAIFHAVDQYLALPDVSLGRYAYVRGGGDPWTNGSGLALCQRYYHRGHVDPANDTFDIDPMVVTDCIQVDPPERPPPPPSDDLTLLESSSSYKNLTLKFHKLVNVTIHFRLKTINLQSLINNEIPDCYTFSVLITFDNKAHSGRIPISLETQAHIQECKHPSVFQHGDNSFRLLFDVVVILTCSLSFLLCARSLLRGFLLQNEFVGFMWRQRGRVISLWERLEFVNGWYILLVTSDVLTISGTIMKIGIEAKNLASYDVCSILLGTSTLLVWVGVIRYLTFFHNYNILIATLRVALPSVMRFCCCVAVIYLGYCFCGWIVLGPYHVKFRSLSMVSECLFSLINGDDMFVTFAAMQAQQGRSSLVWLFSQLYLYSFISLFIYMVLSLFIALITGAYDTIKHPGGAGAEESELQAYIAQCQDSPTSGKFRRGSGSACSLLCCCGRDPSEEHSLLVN
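Cells: TRPML1-DL, 1X Tet inducer, ~16 h at 37 degrees C/5% CO2. Dye: ABD Ca8 no-wash + quencher, 45-90 min RT. Read: 10 s baseline, compound add, 110 s agonist phase; 54-4 EC80 (4uM final), 110 s antagonist phase.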
Six1-Eya2 inh – Six1/Eya2 interaction inhibition. Q15475+O00167. AlphaScreen GST-Six1/His-Eya2 binding, biochemical; stronger effect = lower value; control for the full effect not named in the record. activity change, % (no concentration beside the values). 0.56% of 360,000 active. AID 651725; in the data active = activity change below about -65%; inconclusive = about -30% to -65%; inactive = above about -30%; further: on the % scale 0 is the no-effect control and ±100 the full control effect; compound concentration not given in the record
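Compounds are tested against tagged Six1 and Eya2 proteins bridged by glutathione donor and nickel acceptor beads; after a one-hour incubation at 37 °C without light, AlphaScreen emission is recorded.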
CtBP-E1A inh – CtBP/E1A binding inhibition; 0.49% of 340,000 active; activity change, % (no concentration beside the values); AlphaScreen GST-E1A/His-CtBP binding, 1536-well; stronger effect = lower value; control for the full effect not named in the record; AID 651724; in the data active means activity change below about -65%; inconclusive means about -30% to -65%; inactive means above about -30%; further: on the % scale 0 is the no-effect control and ±100 the full control effect; compound concentration not given in the record
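GST-E1A and His-tagged CtBP (125 nM each as 5X stock) were preincubated with pin-transferred compound for 2 h at 37 °C in the dark, then glutathione donor and nickel acceptor beads were added for 1 h before AlphaScreen reading.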
TRPV1 PAM – human TRPV1 potentiation. 0.02% of 320,000 active. AID 540277. TRPV1-expressing cells, Fluo-8 calcium influx, capsaicin EC20 potentiation; host cell line not named in the record; control for the full effect not named in the record. potentiation, % at 8.33 µM. Q8NER1; active means potentiation above 80%; inconclusive means 30% to 80%; inactive means below 30%; further: 0% is about no effect
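Cells expressing TRPV1 were dye-loaded with Fluo-8 and read kinetically: 10 s baseline, 3 min after compound (agonist portion), then 2 min after EC20 capsaicin (allosteric enhancer portion). Calcium-bound dye fluorescence at 480/520 nm.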
TRPML1 inh – inhibitors of human TRPML1 channel. TRPML1-inducible cells, Ca2+ dye fluorescence, FDSS; stronger effect = lower value; inhibition of EC80 agonist-evoked calcium signal. 0.02% of 390,000 active. Q9GZU1. activity change, negative = inhibition, % (test concentration not listed). AID 624415; in the data active means activity change below about -50%; inconclusive means about -30% to -50%; inactive means above about -30%;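 further: stimulus is agonist 54-4 at its EC80 concentration; on the % scale 0 is the no-effect control and ±100 the full control effect; compound concentration not given in the record; the text of the record puts the active cut at -80%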
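Tet-induced TRPML1-DL cells loaded with Ca8 no-wash calcium dye were read kinetically on FDSS. Compound addition was followed by EC80 agonist 54-4 (4 uM final); inhibition was read over 110 s.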
D2 potentiator – human D2 receptor positive allosteric modulation; P14416; DiscoveRx D2 beta-arrestin cells, luminescence, 90 min; 100% = 57 uM dopamine signal; potentiation, % (test concentration not listed); 0.23% of 360,000 active; active = potentiation of 50% or more; inconclusive = 30% to 50%; inactive = 30% or less;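 further: compound concentration not given in the record; tested on top of an EC20 dose of dopamine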
Target sequence (P14416 whole entry, looked up): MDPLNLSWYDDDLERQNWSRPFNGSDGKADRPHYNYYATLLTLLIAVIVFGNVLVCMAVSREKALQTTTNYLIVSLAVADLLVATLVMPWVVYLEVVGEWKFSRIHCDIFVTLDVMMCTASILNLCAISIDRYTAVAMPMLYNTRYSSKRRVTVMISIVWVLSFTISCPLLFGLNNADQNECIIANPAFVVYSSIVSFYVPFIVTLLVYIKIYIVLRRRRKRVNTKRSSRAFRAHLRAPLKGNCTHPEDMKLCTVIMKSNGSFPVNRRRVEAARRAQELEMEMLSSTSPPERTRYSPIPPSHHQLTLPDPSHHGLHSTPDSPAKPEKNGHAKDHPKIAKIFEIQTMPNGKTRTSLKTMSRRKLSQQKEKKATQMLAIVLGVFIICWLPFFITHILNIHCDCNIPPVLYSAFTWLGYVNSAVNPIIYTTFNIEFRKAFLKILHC
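D2 cells co-treated with compound plus 50 nM dopamine (EC20) for 90 min at 37 deg C to detect potentiation. Beta-arrestin recruitment was read as enzyme-fragment luminescence after 1 h at ambient temperature. Full response was set by 57 uM dopamine.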
Active calls of the source: *; ? = inconclusive; nt = not tested or not shown.

cpd	Structure	TRPML1 ag	Six1-Eya2 inh	CtBP-E1A inh	TRPV1 PAM	TRPML1 inh	D2 potentiator
1	COc1ccc(OCCNC2CCCC2)cc1	0.0	1	nt	11	-10	-10
2	O=C(c1cc(-c2ccc(Cl)cc2)on1)N1CCCC1	0.7	5	-3	-30	7	1
3	CN1c2ccccc2C(C)(C)[C@]12C=Cc1cc(O)ccc1O2	0.9	-25	0	13	5	19
4	COc1ccc(CC(=O)Nc2cccc3c2CCCC3)cc1	-0.3	7	nt	-5	-13	-18
5	O=C(/C=C/Nc1cccc([N+](=O)[O-])c1)c1cccs1	-0.2	4	6	-9	11	-13
6	CCOC(=O)C1CCCN(Cc2cn(C)nc2-c2ccc3c(c2)OCCO3)C1 (stereo not drawn)	-0.1	9	nt	-3	3	-13
7	COc1ccccc1N(Cc1cc(=O)[nH]c2ccccc12)C(C)=O	0.4	1	nt	2	-16	-3
8	CC(NC(=O)C(=O)N1CCCCC1)C(c1cccs1)N1CCN(c2ccc(F)cc2)CC1 (stereo not drawn)	-0.5	-3	0	12	-2	-8
9	CCN(c1cccc(C)c1)S(=O)(=O)c1ccc2c(c1)N(C(C)=O)CCS2	-0.5	-1	0	-19	-1	-9
10	CCC1Oc2ccccc2N(CC(=O)NCCCN2CCN(CC)CC2)C1=O (stereo not drawn)	-0.2	2	3	12	17	-6
11	O=c1[nH]cnc2scc(-c3ccc(F)cc3)c12	-0.5	6	9	4	-7	21
12	Cc1ccc(Cc2c(-c3ccc(Cl)cc3)nc3c(Cl)cc(C(F)(F)F)cn23)cc1	-0.5	0	8	nt	5	-3
13	N#Cc1ccc(C(=O)OCC(=O)Nc2cccc(S(=O)(=O)NC3=NCCC3)c2)cc1	-1.3	-9	nt	nt	0	-11
14	CCC(C)(C(=O)Nc1ccccc1C)N(C(=O)CNC(C)=O)c1ccccc1C (stereo not drawn)	0.5	-4	1	1	-10	-7
15	COCCn1cnc2c1c(=O)n(CC(=O)NC(=O)NC(C)(C)C)c(=O)n2Cc1ccccc1	0.7	-3	2	-7	-11	-11
16	CCCOP(=O)(c1ccccc1)c1ccccc1	-0.9	5	-20	-1	-10	-7
17	CCCN(CC(=O)Nc1ccccc1C)C(=O)c1cccc(-n2cnnn2)c1	-0.5	-1	6	-1	-6	4
18	COC(=O)C1=C(NC(=O)CCCCl)CCS1	0.3	1	2	2	-7	-8
19	CCCOc1ccc(C(=O)NC(=S)NCc2cccnc2)cc1	0.6	-5	-2	-1	0	-1
20	CN(Cc1cccs1)S(=O)(=O)c1cccs1	-0.2	10	13	-4	13	-13
21	Cc1ccc(-c2nc(CS(=O)(=O)CC(=O)NCCCN3CCN(C)CC3)c(C)o2)cc1	-0.1	3	-3	-4	6	-6
22	Cc1sc2nc3ccc(N4CCCCC4)nn3c(=O)c2c1C	0.5	?	-23	-36	-3	-2
23	CC1CCCCN1CC(=O)NC(c1ccccc1)c1ccccc1 (stereo not drawn)	4.4	0	nt	1	-2	-9
24	COc1ccc(NC(=O)c2cnc3n(c2=O)CCS3)cc1OC	-0.2	1	7	17	16	-3
25	Cc1cc(NS(=O)(=O)c2ccc3c(c2)OCCO3)no1	-0.7	14	nt	23	4	-14
26	CC(C)(O)CN(C(=O)C(c1ccccc1)c1ccccc1)C1CCCCC1	3.2	-5	7	nt	74	1
27	CC1=C(C(=O)Nc2ccccc2)C(c2ccncc2)n2nnnc2N1 (stereo not drawn)	-0.6	-2	-3	-1	4	-1
28	O=C(COc1ccccc1-c1ccccc1)N/N=C/c1ccncc1	-0.2	-2	11	-9	-6	-3
29	CCOC(=O)n1c(SCC(N)=O)nc2ccccc21	0.0	-8	-3	-8	-7	-23
30	Cc1cc(-n2c(=O)c(C#N)cc3c(=O)n4cccc(C)c4nc32)no1	-0.7	-1	-2	0	7	-6
31	Cc1cc(C)nc(NC(=O)c2cccc(Br)c2)n1	-0.8	1	-14	-3	3	-4
32	Cc1cc(C)n2nc(-c3ccccc3)c(-c3ccccc3)c2n1	-0.7	8	13	?	-5	2
33	Cc1ccc(N2C(=O)C(CC(=O)Nc3cccc(F)c3)N(C3CC3)C2=O)cc1 (stereo not drawn)	0.4	-1	4	?	12	-5
34	CCCCC(c1nnnn1Cc1ccco1)N1CCN(C(=O)c2ccco2)CC1 (stereo not drawn)	-0.5	-2	3	9	-9	-29
35	Cc1cc(C)c2c(c1)NC(c1cc3c(cc1Br)OCO3)C1CC=CC21 (stereo not drawn)	0.3	-24	?	1	-16	-5
36	COc1ccc(-c2nnc(SCC(=O)NC3CCCC3)n2C)cc1	-1.1	3	0	16	2	-6

A second format for some results above.
22) Cc1sc2nc3ccc(N4CCCCC4)nn3c(=O)c2c1C
  TRPML1 ag: 0.5	Six1-Eya2 inh: ?	CtBP-E1A inh: -23	TRPV1 PAM: -36	TRPML1 inh: -3	D2 potentiator: -2
32) Cc1cc(C)n2nc(-c3ccccc3)c(-c3ccccc3)c2n1
  TRPML1 ag: -0.7	Six1-Eya2 inh: 8	CtBP-E1A inh: 13	TRPV1 PAM: ?	TRPML1 inh: -5	D2 potentiator: 2
24) COc1ccc(NC(=O)c2cnc3n(c2=O)CCS3)cc1OC
  TRPML1 ag: -0.2	Six1-Eya2 inh: 1	CtBP-E1A inh: 7	TRPV1 PAM: 17	TRPML1 inh: 16	D2 potentiator: -3
5) O=C(/C=C/Nc1cccc([N+](=O)[O-])c1)c1cccs1
  TRPML1 ag: -0.2	Six1-Eya2 inh: 4	CtBP-E1A inh: 6	TRPV1 PAM: -9	TRPML1 inh: 11	D2 potentiator: -13

Limited to TRPML1 ag and Six1-Eya2 inh (three entries from above):
cpd	SMILES	TRPML1 ag	Six1-Eya2 inh
36	COc1ccc(-c2nnc(SCC(=O)NC3CCCC3)n2C)cc1	-1.1	3
13	N#Cc1ccc(C(=O)OCC(=O)Nc2cccc(S(=O)(=O)NC3=NCCC3)c2)cc1	-1.3	-9
7	COc1ccccc1N(Cc1cc(=O)[nH]c2ccccc12)C(C)=O	0.4	1

The list continues.
cpd	Structure	TRPML1 ag	Six1-Eya2 inh	CtBP-E1A inh	TRPV1 PAM	TRPML1 inh	D2 potentiator
37	CN(Cc1ccccc1)C(=O)CCC1CCN(C(=O)c2ccccc2C(F)(F)F)CC1	1.0	9	9	-16	-3	5
38	Cc1sc2nc(CSc3nnc(Cc4cccs4)n3C3CCCCC3)[nH]c(=O)c2c1C	0.0	1	0	15	25	4
39	Cc1c(NC(=O)/C(C#N)=C\c2cccs2)c(=O)n(-c2ccccc2)n1C	0.0	-4	1	-3	9	12
40	CCC1=NN2C(=N)/C(=C\c3ccc(OCCOc4ccc(NC(C)=O)cc4)cc3)C(=O)N=C2S1	0.8	-4	-4	-4	-1	-5
41	COCCNC(=O)C1CC(=O)N(c2ccc(OC)cc2)C1c1ccc(OC)cc1 (stereo not drawn)	-0.1	7	-7	2	26	-1
42	COc1cccc(NC(=O)c2cnc(NS(=O)(=O)c3ccccc3)nc2)c1	-0.9	4	-4	nt	-7	2
43	CCOC(=O)CSc1cc(C)nc2ccc(OC)cc12	1.2	3	-5	-7	-13	-5
44	O=C(Cn1cccc1)N1CCN(C(c2ccccc2)c2ccccc2)CC1	0.8	-8	-13	-12	36	-4
45	COc1cc(C(Nc2ccc(S(=O)(=O)NCC3CCCO3)cc2)C(=O)NC(C)(C)C)cc(OC)c1OC (stereo not drawn)	-0.4	8	-3	-1	9	2
46	C=CCN1C(=O)/C(=c2\sc3nc(=O)c(Cc4ccc(OC)c(OC)c4)nn3c2=O)c2ccccc21	-0.2	2	-4	nt	-13	-7
47	Cc1ccc(S(=O)(=O)CCc2nnc(NC(=O)COc3cccc(C)c3)s2)cc1	-0.4	4	5	-14	-10	-11
48	CSc1nc2nc(-c3cccc(C(F)(F)F)c3)ccn2n1	-0.7	0	-9	3	-7	-6
49	COc1ccc(CNC(=O)C(CCSC)NS(=O)(=O)c2ccccc2F)cc1 (stereo not drawn)	0.2	2	-12	8	-22	-2
50	CCn1c(CCC(=O)Nc2cc(F)ccc2C)nc2cc(S(=O)(=O)N(C)C)ccc21	0.5	-1	0	-1	-3	-6
51	CC(=O)c1ccc(NC(=O)CN2CCC(NC(=O)c3ccccc3C)CC2)cc1	-0.5	-16	-2	nt	27	-35
52	O=C(CNC(=O)c1ccc(S(=O)(=O)N2CCCC2)cc1)N/N=C/c1ccc(Cl)cc1	-1.3	-13	8	-1	-6	-5
53	O=C(CSc1ccccc1)Nc1nnc(C2CC2)s1	2.1	4	8	8	-18	-4
54	Cc1ccsc1-c1nc(-c2ccccc2)c(-c2ccccc2)[nH]1	0.7	4	-1	19	-9	-29
55	Cc1ccc(NS(=O)(=O)c2cccc(C(=O)NCCCN3CCOCC3)c2)cc1	0.0	-2	-19	2	20	-17
56	COc1cc(/C=C2\C(=N)N3N=C(S(C)(=O)=O)SC3=NC2=O)ccc1OCCOc1ccc(C)cc1	1.9	-1	-2	-5	-6	-5
57	Cc1noc(/C=C/N(C)C)c1S(=O)(=O)N1CCCC(C(=O)N2CCCCC2)C1 (stereo not drawn)	2.5	-1	-5	-3	56	-7
58	O=C(CN1C(=O)c2ccccc2C1=O)N1CCOCC1	-0.6	6	16	-2	-5	7
59	Cc1ccc2c(c1)NC(=O)C(CC(=O)NCCCN1CCCC1)O2 (stereo not drawn)	0.5	-1	1	-1	-5	-4
60	COc1ccc(NC(=O)COC(=O)[C@@H](NC(=O)c2c(F)cccc2F)C(C)C)cc1	0.3	-2	nt	8	3	-5
61	Cc1csc(SCC(=O)Nc2cccc(C)c2C)n1	1.2	6	1	1	-9	-16
62	CC(C)(O)C#Cc1ccc(CN2CCN(Cc3ccccc3)C(CCO)C2)s1 (stereo not drawn)	0.9	1	-18	9	-9	-1
63	Cn1c(Nc2ccc(Cl)cc2F)nc2cc(-c3ccccc3)sc2c1=O	-0.5	-1	3	nt	nt	0
64	O=C(O)c1ccc(N/N=C/c2cn(-c3ccccc3)nc2-c2cccs2)cc1	1.9	-5	1	-5	17	-3
65	COc1ccc(S(=O)(=O)Nc2ccc3c(c2)C(=O)N([C@H](C)CO)C[C@H](C)[C@@H](CN(C)S(=O)(=O)c2ccccc2)O3)cc1	0.5	0	4	nt	-1	-5
66	O=C(COc1ccccc1)NCC(=O)N/N=C/c1cc(Br)ccc1OCc1ccccc1	1.7	-21	-21	-14	-8	-14
67	NC(=O)c1ccc(NC(=O)COC(=O)/C=C/c2ccc(Br)o2)cc1	4.6	?	-3	nt	14	-11
68	Cc1ccnc(NS(=O)(=O)c2ccc(NC(=O)c3ccc(S(=O)(=O)N4CCCC4)cc3)cc2)n1	0.1	0	0	3	3	-4
69	COC(C(=O)Nc1ccnn1C1CCN(Cc2ccc(Cl)s2)CC1)c1ccccc1 (stereo not drawn)	0.8	6	2	-20	55	-20
70	CCOc1ccc2[nH]c3c(NCCc4ccc(OC)c(OC)c4)ncnc3c2c1	1.2	-23	-16	-16	5	8
71	O=C(Cc1ccc(S(=O)(=O)N2CCOCC2)s1)Nc1ccccc1N1CCOCC1	-0.4	2	-2	-4	-16	-2
72	COc1ccc(Cl)cc1NC(=O)CCN1C(=O)C2C3CCC(C3)C2C1=O (stereo not drawn)	0.9	2	6	1	6	2
73	O=C1[C@H]2CC3C=CC2(O3)[C@@H]2OCCCN12 (stereo partly drawn)	0.3	-4	5	-3	-22	-7
74	c1ccc2c(C[C@@H]3CNCCN3CCC34CC5CC(CC(C5)C3)C4)cccc2c1	-0.6	-3	0	nt	-3	-56
75	O=C(c1ccco1)N1CCC(c2nc(-c3ccccc3Cl)no2)CC1	3.3	0	6	-4	32	-3
